Ecoli rRNA inh: inhibitors of bacterial rRNA selective over humanized ribosomes | GFP signal change (wild-type ribosome), % (test concentration not listed) | E. coli WT GFP vs humanized-ribosome RFP mutants, fluorescence, 24 h; hits give low values; DMSO median 0, no signal -100 | 1.6% of 350,000 active;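 active = significant combined selectivity score with lowered wild-type GFP, culture density cut under 30%, mutant RFP and density less affected; inactive = any of these conditions unmet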; also: one replicate is shown; some compounds called inactive have numbers as strong as hits
FGF22 binding: binders of recombinant human FGF22 by thermal shift. SYPRO orange fluorescence; percent of sucrose octasulfate shift, DMSO zero. Q9HCT0. calls only at 9.99 µM. 1.5% of 340,000 active. AID 651658;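 active = melting point raised past a set limit in the mean and every replicate; three in four hits are not shown here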
Target sequence (Q9HCT0 whole entry, looked up): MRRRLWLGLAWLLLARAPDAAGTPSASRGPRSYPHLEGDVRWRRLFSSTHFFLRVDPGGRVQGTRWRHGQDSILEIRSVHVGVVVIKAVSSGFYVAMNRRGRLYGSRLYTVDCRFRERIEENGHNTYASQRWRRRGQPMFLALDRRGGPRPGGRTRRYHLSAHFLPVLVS
Ecoli rRNA inh OD600: recorded beside Ecoli rRNA inh, whose call it bears; OD600 change, %; measured here: OD600 growth;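 optical density of the mix in the first replicate; 0 = DMSO median and -100 = no signal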
Ecoli rRNA inh RFP: second read-out of Ecoli rRNA inh, no call of its own (marks repeat the call); RFP signal change, %; measured here: RFP humanized mutant strains;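 first replicate; 0 = DMSO median and -100 = no signal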
An asterisk follows results filed as active; i = inactive; & = joins results of further samples. Not all compounds are listed; count on the stated rates, not on these rows.

SMILES	Ecoli rRNA inh	Ecoli rRNA inh OD600	Ecoli rRNA inh RFP	FGF22 binding
COc1ccc(S(=O)(=O)N(C)C[C@@H]2OCCCC[C@H](C)Oc3ccc(NC(=O)NC(C)C)cc3C(=O)N([C@H](C)CO)C[C@@H]2C)cc1	-1	-2	1.6	i
O=C(NC1CCCCC1)N[C@@H]1CC[C@H](CCNS(=O)(=O)c2ccc(F)cc2)O[C@H]1CO	1	-1	-0.5	i
COc1ccc(S(=O)(=O)Nc2ccc3c(c2)C(=O)N([C@@H](C)CO)C[C@H](C)[C@H](CN(C)S(=O)(=O)c2ccc(F)cc2)OCCCC[C@H](C)O3)cc1	0	8	-0.5	i
Cc1cc(C(=O)Nc2cccc3c2O[C@@H](CN(C)S(=O)(=O)c2c(C)noc2C)[C@@H](C)CN([C@H](C)CO)C3=O)n(C)n1	-10	-12	2.9	i
CCC(=O)Nc1ccc2c(c1)C(=O)N(C)C[C@@H](OC)[C@@H](C)CN(C(=O)Cc1ccccn1)[C@H](C)CO2	2	5	-0.9	i
CO[C@@H]1CN(C)C(=O)c2ccc(NC(=O)Nc3cccc(F)c3)cc2OC[C@H](C)NC[C@@H]1C	-7&-2	-2&1	6.2&2.4	i
Cc1noc(C)c1NC(=O)Nc1ccc2c(c1)C(=O)N([C@@H](C)CO)C[C@@H](C)[C@H](CN(C)Cc1ccncc1)OCCCC[C@@H](C)O2	2	6	-1.3	i
C[C@H]1CN([C@@H](C)CO)C(=O)c2cccc(NC(=O)Nc3ccc4c(c3)OCO4)c2O[C@H]1CN(C)C(=O)NC1CCCCC1	-6	-10	-2.6	i
CO[C@@H]1CN(C)C(=O)c2cc(NS(=O)(=O)c3ccc(C)cc3)ccc2OC[C@H](C)NC[C@@H]1C	2	-1	-0.6	i
O=C(C[C@@H]1C=C[C@H](NC(=O)Nc2ccc(C(F)(F)F)cc2)[C@@H](CO)O1)NCCN1CCCC1	1	7	-2.9	i
CCS(=O)(=O)N1CCC2(CC1)CN(C(=O)Nc1cccc(F)c1)[C@@H](CO)c1c2c2ccc(OC)cc2n1C	-2	-13	6.9	i
COc1ccc(S(=O)(=O)Nc2ccc3c(c2)C(=O)N([C@H](C)CO)C[C@H](C)[C@H](CN(C)C(=O)Nc2ccc(C(F)(F)F)cc2)OCCCC[C@@H](C)O3)cc1	-1	-2	-0.8	i
CC(C)NC(=O)N(C)C[C@@H]1Oc2c(NC(=O)Nc3ccc(F)cc3)cccc2C(=O)N([C@@H](C)CO)C[C@@H]1C	-5	1	0.5	i
C[C@@H]1CN([C@H](C)CO)C(=O)c2cc(NC(=O)Nc3cccc4ccccc34)ccc2O[C@@H](C)CCCCO[C@H]1CN(C)S(=O)(=O)c1ccc(F)cc1	4	1	2.1	i
COc1ccc(-c2cccc(-c3nc(C(=O)NCC(F)(F)F)cc4c3[C@@H](CCO)N([S@](=O)C(C)(C)C)C4)c2)cc1	2	-24	36	i
CC=Cc1ccc2n(c1=O)C[C@@H]1[C@@H](CO)[C@H](C(=O)OC)N(CCc3ccccc3)[C@H]21 (mixture of isomers)	-1	-6	1.8	i
C[C@@H]1CCCCO[C@@H](CN(C)C(=O)Nc2ccccc2)[C@H](C)CN([C@@H](C)CO)C(=O)c2cc(NC(=O)C3CCCCC3)ccc2O1	1	5	2.7	i
C[C@H](O)C#Cc1cnc2c(c1)C(=O)N([C@H](C)CO)C[C@@H](C)[C@H](CN(C)C(=O)CN1CCOCC1)O2	4	6	-3.1	i
CCC(=O)N1C[C@@H](C)[C@H](OC)CN(C)C(=O)c2cc(NC(=O)COC)ccc2OC[C@H]1C	1	-2	-1.7	i
COc1ccc(S(=O)(=O)N[C@@H]2CC[C@H](CC(=O)O)O[C@@H]2CO)cc1	1	0	0.4	i

Compounds from the list above with a CF3 group (3):
SMILES	Ecoli rRNA inh	Ecoli rRNA inh OD600	Ecoli rRNA inh RFP	FGF22 binding
O=C(C[C@@H]1C=C[C@H](NC(=O)Nc2ccc(C(F)(F)F)cc2)[C@@H](CO)O1)NCCN1CCCC1	1	7	-2.9	i
COc1ccc(S(=O)(=O)Nc2ccc3c(c2)C(=O)N([C@H](C)CO)C[C@H](C)[C@H](CN(C)C(=O)Nc2ccc(C(F)(F)F)cc2)OCCCC[C@@H](C)O3)cc1	-1	-2	-0.8	i
COc1ccc(-c2cccc(-c3nc(C(=O)NCC(F)(F)F)cc4c3[C@@H](CCO)N([S@](=O)C(C)(C)C)C4)c2)cc1	2	-24	36	i

Further records:
SMILES	Ecoli rRNA inh	Ecoli rRNA inh OD600	Ecoli rRNA inh RFP	FGF22 binding
Cc1ccc(S(=O)(=O)Nc2ccc3c(c2)CC(=O)N([C@@H](C)CO)C[C@@H](C)[C@H](CN(C)S(=O)(=O)c2ccccc2)O3)cc1	-3	-14	-1.7	i
COc1ccc(S(=O)(=O)N[C@H]2C=C[C@H](CC(=O)O)O[C@@H]2CO)cc1	2	1	-2.0	i
CCCC(O)C#Cc1cnc2c(c1)C(=O)N([C@H](C)CO)C[C@H](C)[C@H](CN(C)S(=O)(=O)c1ccc(OC)cc1)O2 (stereo partly drawn)	-4	-8	0.0	i
O=C(C[C@H]1C[C@H]2c3cc(NC(=O)c4ccc5c(c4)OCO5)ccc3O[C@H]2[C@H](CO)O1)NCCc1ccccc1	-1	-23	2.7	i
C[C@@H]1CN([C@@H](C)CO)C(=O)CCCn2nncc2CO[C@H]1CN(C)Cc1cccc(C(=O)O)c1	0	-3	0.5	i
O=C(C[C@@H]1C[C@H]2c3cc(NS(=O)(=O)c4ccccc4)ccc3O[C@H]2[C@H](CO)O1)NCC1CC1	-2	-6	-2.9	i
C[C@@H]1CN([C@@H](C)CO)S(=O)(=O)c2ccc(C#CC(C)(C)O)cc2O[C@H]1CN(C)C(=O)C1CCC1	1	-1	-4.9	i
COC(=O)C[C@@H]1C[C@@H]2c3cc(NC(=O)Cc4ccncc4)ccc3O[C@@H]2[C@H](CO)O1	-4	-19	-0.2	i
COc1cccc(S(=O)(=O)N2CCCCN3[C@H](CO)[C@@H](c4ccc(-c5cncnc5)cc4)[C@@H]3C2)c1	-7	3	4.0	i
CO[C@@H]1CN(C)C(=O)c2ccc(NC(=O)C3CC3)cc2OC[C@@H](C)N(C(=O)CN(C)C)C[C@@H]1C	0	7	-1.1	i
C[C@H](CO)N1C[C@H](C)[C@@H](CN(C)S(=O)(=O)c2cn(C)cn2)OCCCC[C@H](C)Oc2ccc(NC(=O)CCC(F)(F)F)cc2C1=O	1	2	-0.5	i
Cc1ccc(S(=O)(=O)N2CC[C@@H]3[C@@H](CO)Nc4ccc(-c5cccc(C(=O)N(C)C)c5)cc4[C@@H]32)cc1	-9	-10	3.6	i
C[C@@H]1CCCCO[C@H](CN(C)C(=O)CCC(F)(F)F)[C@@H](C)CN([C@H](C)CO)C(=O)c2cc(NC(=O)CCCCCC(=O)Nc3ccccc3N)ccc2O1	2	1	-3.8	i
C[C@H]1CN([C@@H](C)CO)C(=O)c2c(c3ccccc3n2C)-c2ccccc2CO[C@@H]1CN(C)Cc1ccc2c(c1)OCCN2C	-2	-19	21	i
CS(=O)(=O)N1CC2(C1)[C@@H](c1ccccc1)[C@@H](CO)N2Cc1ccccn1	3	2	1.2	i
C[C@@H]1CN([C@H](C)CO)C(=O)c2cc(NS(=O)(=O)c3ccc(F)cc3)ccc2O[C@@H](C)CCCCO[C@@H]1CN(C)S(=O)(=O)c1ccc(F)cc1	1	5	-1.2	i
COc1ccc(CN(C)C[C@H]2Oc3ccc(NC(=O)Cc4cn(C)c5ccccc45)cc3CC(=O)N([C@@H](C)CO)C[C@H]2C)cc1	0	-3	5.4	i
O=C(c1ccc2c(c1)OCO2)N1C[C@@H]2[C@H](c3ccccc31)[C@@H](CO)N2Cc1ccc2c(c1)OCO2	-8	-15	3.2	i
C/C=C/c1ccc2c(c1)O[C@@H](CN(C)C(=O)c1ccccn1)[C@H](C)CN([C@H](C)CO)S2(=O)=O	-2	-9	0.2	i
CC(C)CC#Cc1cnc2c(c1)C(=O)N([C@@H](C)CO)C[C@@H](C)[C@@H](CN(C)Cc1ccc3c(c1)OCO3)O2	-4	-23	17	i

Three compounds from above, ordered by length of the SMILES, high to low:
SMILES	Ecoli rRNA inh	Ecoli rRNA inh OD600	Ecoli rRNA inh RFP	FGF22 binding
C[C@H](CO)N1C[C@H](C)[C@@H](CN(C)S(=O)(=O)c2cn(C)cn2)OCCCC[C@H](C)Oc2ccc(NC(=O)CCC(F)(F)F)cc2C1=O	1	2	-0.5	i
CCCC(O)C#Cc1cnc2c(c1)C(=O)N([C@H](C)CO)C[C@H](C)[C@H](CN(C)S(=O)(=O)c1ccc(OC)cc1)O2 (stereo partly drawn)	-4	-8	0.0	i
Cc1ccc(S(=O)(=O)N2CC[C@@H]3[C@@H](CO)Nc4ccc(-c5cccc(C(=O)N(C)C)c5)cc4[C@@H]32)cc1	-9	-10	3.6	i

Next structures follow.
SMILES	Ecoli rRNA inh	Ecoli rRNA inh OD600	Ecoli rRNA inh RFP	FGF22 binding
CCCNC(=O)Nc1ccc2c(c1)C(=O)N(C)C[C@H](OC)[C@@H](C)CN(Cc1cncnc1)[C@H](C)CO2	0	1	1.2	i
CC(C)C#Cc1ccc2c(c1)O[C@@H](CN(C)C(=O)Cc1ccccn1)[C@@H](C)CN([C@@H](C)CO)S2(=O)=O	-2	4	1.7	i
CCNC(=O)Nc1ccc2c(c1)C(=O)N(C)[C@H]1CC[C@@H](CC(=O)NCc3ccc(F)cc3)O[C@H]1CO2	-4	-3	-0.6	i
COCC(=O)N1[C@H](C(=O)NCc2ccccc2)[C@@H](CO)[C@@H]2Cn3c(cccc3=O)[C@@H]21	1	8	2.5	i
CN1C(=O)c2cc(NC(=O)c3cccc(F)c3)ccc2OC[C@H]2O[C@@H](CC(=O)NC3CCC3)CC[C@@H]21	-1	3	1.8	i
C/C=C/c1cnc2c(c1)C(=O)N([C@@H](C)CO)C[C@@H](C)[C@H](CN(C)S(=O)(=O)c1ccc(F)cc1)O2	-7	-10	-0.2	i
C[C@@H]1CN([C@H](C)CO)C(=O)Cc2cc(NC(=O)C3CC3)ccc2O[C@H]1CN(C)S(C)(=O)=O	2	2	-2.0	i
C[C@H]1CN([C@@H](C)CO)C(=O)Cc2cc(NC(=O)Cn3cnnn3)ccc2O[C@H]1CN(C)Cc1ccc(C(=O)O)cc1	3	-12	0.7	i
CN1C(=O)c2cc(NC(=O)c3ccc(F)cc3)ccc2OC[C@H]2O[C@@H](CC(=O)NCC3CCCCC3)CC[C@@H]21	-8	-18	7.5	i
COCCNC(=O)C[C@H]1C[C@@H]2c3cc(NC(=O)C4CCOCC4)ccc3O[C@@H]2[C@@H](CO)O1	3	2	-1.7	i
C[C@H]1CN([C@@H](C)CO)C(=O)c2cc(C#Cc3ccc(F)cc3)cnc2O[C@@H]1CN(C)C(=O)c1ccccc1F	-4	-35	22	i
COc1ccc(CNC(=O)C[C@@H]2C[C@H]3c4cc(NC(=O)NC5CCCC5)ccc4O[C@H]3[C@@H](CO)O2)cc1	5	4	0.7	i
C[C@@H]1CCCCO[C@H](CN(C)C(=O)Nc2ccc3c(c2)OCO3)[C@H](C)CN([C@@H](C)CO)C(=O)c2cc(NC(=O)c3ccncc3)ccc2O1	1	0	2.1	i
N#C[C@H]1[C@@H](c2ccccc2C2=CCCCC2)[C@@H](CO)N1C(=O)NC1CCCC1	1	-48	18	i
CCC(=O)N(C)C[C@H]1Oc2cc(-c3ccccc3)ccc2S(=O)(=O)N([C@H](C)CO)C[C@H]1C	-7	-8	1.0	i
CC(C)NC(=O)Nc1ccc2c(c1)C(=O)N([C@H](C)CO)C[C@@H](C)[C@H](CN(C)C(=O)CCCN(C)C)OCCCC[C@@H](C)O2	1	-5	-2.7	i
CCCC#Cc1ccc2c(c1)O[C@H](CN(C)C(=O)Nc1ccc(OC)cc1)[C@H](C)CN([C@@H](C)CO)S2(=O)=O	-5	-10	-0.3	i
COc1ccccc1C(=O)N1C[C@@H]2[C@H](c3ccccc31)[C@@H](CO)N2C(=O)Nc1ccccc1	-1	11	-1.5	i
N#C[C@@H]1[C@H](c2ccc(-c3ccccc3F)cc2)[C@@H](CO)N1C(=O)c1ccccn1	-7	-38	12	i
CN1C(=O)c2cc(NC(=O)c3cccc(F)c3)ccc2OC[C@@H]2O[C@@H](CC(=O)NCc3ccccc3)CC[C@H]21	-5	-13	0.9	i
C[C@@H]1CN([C@H](C)CO)C(=O)c2cc(C#CC3CCCCC3)cnc2O[C@@H]1CN(C)S(=O)(=O)c1cccc(F)c1	1	3	0.2	i
O=C(O)C[C@H]1C[C@@H]2c3cc(NC(=O)NC4CCCC4)ccc3O[C@@H]2[C@@H](CO)O1	-1	0	-4.5	i
COc1ccc(CNC(=O)C[C@@H]2C=C[C@H](NC(=O)Nc3ccc4c(c3)OCO4)[C@@H](CO)O2)cc1	3	8	0.8	i
Cc1noc(C)c1NC(=O)N(C)C[C@@H]1Oc2c(NC(=O)Nc3ccc4c(c3)OCO4)cccc2C(=O)N([C@H](C)CO)C[C@@H]1C	2	5	-0.6	i
COc1ccc2c3c(n(C)c2c1)[C@H](CO)N(CC1CCCCC1)CC31CCN(C(C)=O)CC1	4	4	0.8	i
COc1ccccc1C#Cc1ccc([C@H]2[C@@H](C#N)N(C(=O)C3CC3)[C@@H]2CO)cc1	2	5	-0.5	i
CCC(=O)N1C[C@@H](C)[C@@H](OC)CN(C)C(=O)c2cc(NC(=O)C3CC3)ccc2OC[C@@H]1C	2	1	-1.4	i
